High-throughput results as filed in PubChem.
Sa RN4220 lethal = kills Staphylococcus aureus RN4220 | AID 1259311 | S. aureus RN4220 growth, OD600, 16 h | 0.33% of 330,000 active | inhibition, % (concentration not given with the values);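 active = z-score of -3 or lower and OD600 up to 0.18 on both plates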;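 note: plate controls were untreated cells for no effect and reference antibiotic for full effect; stock transfer was 100 nL into about 80 µL; one replicate is shown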
BJeLR viability = kills HRASV12-expressing BJeLR cells; AID 1554; BJeLR (HRASV12) viability, CellTiter-Glo ATP luminescence, 48 h; reference of the scale not given here; inhibition, % (test concentration not listed); 0.17% of 300,000 active;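 active = replicate mean above 50%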;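 note: 50 nL library stock added to about 25 µL; numbers are from one replicate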
PrP UTR inh = suppresses PrP 5' UTR mRNA reporter expression | cell-based PrP 5' UTR mRNA reporter, plate reader | inhibition, % (test concentration not listed) | 0.35% of 340,000 active;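 active = every replicate at 50% or more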;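 note: 0 = median of the neutral control wells; tested in H4 reporter cells; numbers are from one replicate; inactives centre near -14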
ugtP null kill = growth inhibition of S. aureus ugtP deletion strain; S. aureus RN4220 ugtP deletion, OD600 growth, 16 h; some inactives read as strong as hits; growth inhibition, % (test concentration not listed); 0.54% of 330,000 active; AID 1259309;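 active = z-score under -3 and OD600 up to 0.15 on both plates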;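 note: plate controls were untreated wells for no effect and antibiotic for full effect; wells of about 80 µL received 100 nL stock; the first replicate is given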
Autofluor counter = compound fluorescence in toxin protease inhibitor counterscreen. compound autofluorescence counterscreen, microsphere flow cytometry; active compounds read high. fluorescence intensity (test concentration not listed). 3.1% of 360,000 active. AID 624483;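 active = at least 3 SD above the mean of all compounds, about 16000 in these data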;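 note: 100 nL of 1 mM stock went into each well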
Mtb hypoxia inh = inhibitors of hypoxia-regulated fluorescent reporter in Mycobacterium tuberculosis; M. tuberculosis hypoxia-regulated fluorescent reporter, fluorescence; fluorescence inhibition, % (concentration not given with the values); 0.1% of 300,000 active;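 active = 35 to 45% if threefold the growth effect, above 45% if 1.5-fold the growth effect; inactive = the rest, general growth blockers included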;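 note: wells of about 50 µL received 100 nL stock; 0% = vehicle wells and 100% = reference inhibitor wells; whole bacteria with a GFP reporter of the hypoxia response; strong numbers were not always called active; many hits fall short of the cut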
Mtb hypoxia inh growth = recorded beside Mtb hypoxia inh, whose call it bears; growth inhibition, %; measured here: M. tuberculosis growth (absorbance);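 0% = vehicle and 100% = reference antibiotic; read after six days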
* marks the source's active call; other numbers are inactive results; . = no result given.

The line under a structure holds: Sa RN4220 lethal | BJeLR viability | PrP UTR inh | ugtP null kill | Autofluor counter | Mtb hypoxia inh | Mtb hypoxia inh growth
1) O=C(c1cnc(-c2ccccc2)s1)c1ccc(Cl)cc1Cl
  -4.6 | 11 | -20 | -24 | 22951* | 1 | 5
2) CCN(CC)S(=O)(=O)c1cc(OC)c(Cl)cc1OC
  2.9 | -3 | -13 | -3 | 5130 | 4 | -1
3) Cc1cccc(NC(=O)c2cc(-c3c(C)cc(C)cc3O)n[nH]2)c1
  2.1 | 7 | -8 | 2 | 3502 | -1 | 1
4) CC(C)N1C(=O)C2C(C(=O)NC3CCCCC3)C3C=CC2(O3)C1C(=O)NC1CCCCC1 (configuration not stated)
  -0.7 | -20 | -21 | 0 | 7901 | 7 | 0
5) COc1ccc(CN2CC(=O)N3C4c5ccc(OC)cc5OCC4C(c4ccccc4)[C@]3(C)C2=O)cc1 (some centres not stated)
  3.1 | . | . | 15 | . | 16 | 8
6) CCOP(=O)(C#CC(C)(C)C)C(C)(O)c1ccccc1 (configuration not stated)
  1.6 | -8 | -16 | -8 | 4171 | . | .
7) S=c1[nH]nc(COc2ccccc2)n1N=Cc1cccc(Br)c1
  8.6 | . | . | -8 | . | 4 | -5
8) CC1(C)CC2(CCO1)OC(=O)CC2C(=O)NCc1ccccc1 (configuration not stated)
  2.5 | -9 | -10 | -2 | 8264 | 7 | 8
9) C=CCOc1nc2c(c(=O)n(C)c(=O)n2C)n1Cc1ccccc1Cl
  4.2 | 4 | -10 | 8 | 20534* | 7 | 11
10) Cc1ccc(C(=O)N/C(=C\c2cccs2)C(=O)NCCc2c[nH]c3ccccc23)cc1
  5.0 | 0 | -20 | 3 | 2962 | 7 | -7
11) COc1ccc(-c2nnc(SCC(C)C)o2)cc1
  12 | 7 | -27 | 8 | 4709 | . | .
12) Cc1[nH]c2ccccc2c1/C=N/NC(=O)CNC(=O)COc1ccccc1
  . | -2 | -47 | . | 3538 | . | .
13) CCN1CCN(C(=O)Nc2ccc(Cc3ccc(NC(=O)N4CCN(CC)CC4)cc3)cc2)CC1
  -7.2 | 14 | -24 | -12 | 5765 | -6 | 0
14) NC(=O)c1ccc(NC(=O)COC(=O)/C=C/c2cn(-c3ccccc3)nc2-c2cccnc2)cc1
  4.1 | -7 | -6 | 0 | 6749 | 8 | 3
15) COC(=O)Cc1csc(Nc2ccccc2)n1
  3.4 | 1 | -20 | 3 | 2508 | 7 | -1
16) Cc1ccc(CC(=O)N2CCN(c3ccc([N+](=O)[O-])cc3)CC2)cc1
  -3.3 | 6 | -20 | 15 | . | 17 | 9
17) COc1ccccc1N1CCN(C2CCCN(C(=O)C3=NN(C)C(=O)CC3)C2)CC1 (configuration not stated)
  2.0 | -3 | 1 | 5 | 6277 | 10 | 7
18) CC(C)N(NC(=O)c1cccc2ccccc12)C(C)C
  9.2 | 4 | -18 | 11 | 3113 | -5 | 3
19) Cc1ccc(S(=O)(=O)N2CCN(C(=O)c3c(-c4ccccc4)noc3C)CC2)cc1C
  5.6 | -1 | -12 | 4 | 3904 | -8 | 8
20) CCOc1ccccc1N(C)C(=O)c1cn(C)c(=O)c2ccccc12
  1.7 | -9 | -22 | -2 | 3929 | 9 | -1
21) CSc1cccc(NS(=O)(=O)c2ccc(C(C)=O)cc2)c1
  7.8 | -2 | -11 | 12 | 3673 | -11 | 2
22) Cc1ccc(S(=O)(=O)CCC(=O)OC(C)C(=O)Nc2ccc(N3CCOCC3)cc2)cc1 (configuration not stated)
  2.6 | . | . | 0 | 5077 | 5 | 2
23) COc1c2ccoc2c(OCC=C(C)C)c2oc(=O)ccc12
  7.9 | -6 | -2 | 8 | 3747 | 4 | 0
24) O=C(OCc1ccccc1)N1CCCC1/C=C/CN1CCOCC1 (configuration not stated)
  . | -6 | -21 | . | 1947 | . | .
25) O=C(Nc1ccc(C(F)(F)F)cc1)C1CC(=O)N(c2ccc3c(c2)OCCO3)C1 (configuration not stated)
  -6.2 | -4 | -3 | -10 | 2469 | 5 | 7
26) CCN(CC)S(=O)(=O)c1ccc(N2CCOCC2)c(NC(=O)c2cc3ccccc3oc2=O)c1
  18 | -1 | -42 | -1 | 5237 | 8 | 11
27) NNC(=S)Nc1c(F)cc(F)cc1Br
  2.5 | -1 | -24 | 6 | 3836 | -10 | 1
28) CC(NC(=O)c1ccc(CS(=O)(=O)c2ccc(Cl)cc2)o1)c1ccc2c(c1)OCCO2 (configuration not stated)
  2.6 | -4 | -6 | 0 | 20032* | 3 | 4
29) CN1CCN(c2ccc([N+](=O)[O-])c3cccnc23)CC1
  16 | -2 | -7 | 16 | 2383 | 2 | 4
30) O=C1OC(c2ccc(O)cc2)(c2ccccc2O)c2ccccc21 (configuration not stated)
  8.0 | . | -11 | -3 | 2896 | 5 | 0
31) CCOc1ccc(C(=O)Nc2ncn[nH]2)cc1
  4.6 | -1 | -11 | 6 | . | 10 | 6
32) CCCN(CCC)c1ccc(CC(=O)NC(C)Cc2ccccc2)cc1 (configuration not stated)
  4.6 | -6 | -28 | -1 | 1966 | 12 | 7
33) c1ccc(-c2c[nH]c3[n+]2CCCCC3)cc1
  -0.4 | 8 | -16 | 7 | 5181 | . | .
34) C/C=C/COC(=O)c1[nH]c2c(c1C)C(=O)CC(c1ccc(N(C)C)cc1)C2 (configuration not stated)
  6.0 | -4 | -27 | 14 | 6600 | . | .
35) CCC(CC)N1CCN(C(=O)c2cccc(Cl)c2)CC1
  . | 13 | -14 | . | 3968 | . | .
36) COCCNC(=O)C(=O)Nc1cc2c3c(c1)CC(=O)N3CCC2
  3.0 | -6 | -8 | -3 | 3875 | -11 | -13
37) Cc1cc(OCC(=O)Nc2ccc3c(c2)OCCO3)cc(C)c1Cl
  -7.1 | 7 | -4 | -10 | 4843 | . | .
38) O=C(CCN1CCOCC1)NN=Cc1cc([N+](=O)[O-])ccc1OC(F)F
  2.4 | . | . | 8 | . | 6 | 3
39) O=[N+]([O-])c1ccccc1SNc1ccc(Br)cn1
  -4.2 | 7 | -12 | 9 | 2450 | 9 | 5
40) CC1CC(c2ccccc2)=Nc2ccccc2N1 (configuration not stated)
  2.6 | 0 | 30 | 8 | 3545 | 19 | 10
41) O=C(Nc1ccc2nc3n(c(=O)c2c1)CCCCC3)C(=O)N1CCN(c2ccccc2F)CC1
  5.1 | -4 | -20 | -8 | 3625 | 14 | 3
42) CCOc1cc(-c2nc(-c3ccccc3)c(-c3cc([N+](=O)[O-])ccc3C)[nH]2)ccc1O
  19 | 12 | -24 | -8 | 9243 | 0 | 9
43) O=C1NC(=S)NC1=Cc1ccccc1O
  6.2 | . | -26 | -1 | 3634 | 5 | -6
44) O=C(NCCN1CCCC1)c1ccc(CS(=O)(=O)c2c(Cl)cccc2Cl)o1
  -5.2 | -11 | 7 | -5 | 6459 | . | .
45) Cc1cccc(N=Nc2c(C)c(C#N)c(O)[nH]c2=O)c1
  6.1 | 1 | -28 | 8 | 4407 | -5 | 7
46) Cc1ccc(CCNC(=O)C2CC(c3ccc(C(F)(F)F)cc3)=NO2)cc1 (configuration not stated)
  6.2 | -12 | -18 | -3 | 2893 | 3 | 3
47) N/C(=N\OC(=O)c1ccc(Br)cc1)c1ccncc1
  7.8 | 2 | -12 | -2 | 2045 | 5 | -1
48) O=c1[nH]cc(S(=O)(=O)N2CCOCC2)c(=O)[nH]1
  4.1 | -4 | 10 | 3 | 5411 | -5 | 6
49) CCCn1nnnc1NCc1c(F)cccc1Cl
  3.4 | 0 | -25 | 0 | 2243 | 0 | 10
50) Cc1ccc(S(=O)(=O)N2CCOCC2)cc1NC(=O)COC(=O)c1ccc(Br)o1
  3.9 | . | 0 | 5 | 4073 | -14 | -7
51) COCc1nnc(NC(=O)C(C)C)s1
  3.5 | -5 | -20 | -1 | 3185 | -2 | 1
52) O=C(CSc1nnc(CNC(=O)c2ccccc2F)o1)NCCc1ccccc1
  0.5 | 0 | -14 | 1 | 4118 | . | .
53) COc1cc(OC)cc(C(=O)N[C@H](C(=O)Nc2ccc(F)cc2F)C(C)C)c1
  3.7 | 1 | -8 | 3 | 4182 | 7 | -1
54) N#CCCn1cc(C(=O)Nc2ccccc2Br)c(-c2ccc3c(c2)OCCO3)n1
  5.0 | -5 | -23 | 7 | 2423 | 1 | 2
55) Cc1ccn2c(=O)cc(C)nc2c1
  1.6 | 7 | -19 | 6 | 5001 | 20 | 3
56) Cc1cc(/C=C(\C#N)C(=O)O)c(C)n1CCC(C)C
  6.8 | 4 | 3 | 17 | 4648 | -6 | 1
57) CC(=O)Nc1cccc(NC(C)=C(C#N)C#N)c1
  1.2 | 4 | -11 | 8 | 2173 | 13 | 0
58) O=S(=O)(c1ccccc1)N1C2CCC1CC(O)(c1cccnc1)C2 (configuration not stated)
  1.2 | 7 | -33 | 4 | 4804 | . | .
59) O=C(COC(=O)c1ccc2ccccc2n1)NCc1ccccc1
  3.4 | -10 | -12 | 2 | 3532 | 10 | 6
60) COC(=O)c1ccccc1-c1ccc(C=NNc2nc(N3CCCC3)nc(N3CCCC3)n2)o1
  4.6 | . | . | -8 | . | 4 | 11

Other entries follow:
The line under a structure holds: Sa RN4220 lethal | BJeLR viability | PrP UTR inh | ugtP null kill | Autofluor counter | Mtb hypoxia inh | Mtb hypoxia inh growth
61) O=C(NCC(=O)N(Cc1ccccc1)C(C(=O)NC1CCCC1)c1cccnc1)c1ccco1 (configuration not stated)
  4.0 | 2 | -11 | 12 | 2821 | . | .
62) COCCNC(=O)C1CCC(CNS(=O)(=O)c2ccc3c(c2)CC(C)N3C(=O)C2CC2)CC1 (configuration not stated)
  3.4 | -6 | -5 | 1 | 5950 | 8 | 10
63) CC(=O)c1ccc([N+](=O)[O-])cc1
  9.4 | . | -1 | 1 | 4263 | 11 | 9
64) CC(=O)c1cc(F)c(N2CCN(C(=O)Cc3ccccc3)CC2)cc1C
  1.7 | 1 | -10 | 5 | 2364 | . | .
65) C=C(C)Cc1c(C)c(C#N)c2nc3ccccc3n2c1NCCCN(C)C
  0.5 | 11 | . | 5 | . | 3 | 1
66) O=C(Nc1ccc(C(=O)N2CCOCC2)cc1)c1cc(-c2cccnc2)nc2ccc(Br)cc12
  5.6 | 1 | -23 | -77 | 4310 | -6 | 5
67) Cc1ccc(NC(=O)CCNC(=O)c2ccc([N+](=O)[O-])cc2)cc1C
  3.2 | -7 | -17 | 2 | 5194 | 6 | 2
68) O=C(CSc1nccc(-c2cccs2)n1)Nc1cccc(Cl)c1
  15 | 10 | -1 | 14 | 3308 | 10 | 10

Compounds shown so far containing an NH in an aromatic ring:
The line under a structure holds: Sa RN4220 lethal | BJeLR viability | PrP UTR inh | ugtP null kill | Autofluor counter | Mtb hypoxia inh | Mtb hypoxia inh growth
3) Cc1cccc(NC(=O)c2cc(-c3c(C)cc(C)cc3O)n[nH]2)c1
  2.1 | 7 | -8 | 2 | 3502 | -1 | 1
7) S=c1[nH]nc(COc2ccccc2)n1N=Cc1cccc(Br)c1
  8.6 | . | . | -8 | . | 4 | -5
10) Cc1ccc(C(=O)N/C(=C\c2cccs2)C(=O)NCCc2c[nH]c3ccccc23)cc1
  5.0 | 0 | -20 | 3 | 2962 | 7 | -7
12) Cc1[nH]c2ccccc2c1/C=N/NC(=O)CNC(=O)COc1ccccc1
  . | -2 | -47 | . | 3538 | . | .
31) CCOc1ccc(C(=O)Nc2ncn[nH]2)cc1
  4.6 | -1 | -11 | 6 | . | 10 | 6
33) c1ccc(-c2c[nH]c3[n+]2CCCCC3)cc1
  -0.4 | 8 | -16 | 7 | 5181 | . | .
34) C/C=C/COC(=O)c1[nH]c2c(c1C)C(=O)CC(c1ccc(N(C)C)cc1)C2 (configuration not stated)
  6.0 | -4 | -27 | 14 | 6600 | . | .
42) CCOc1cc(-c2nc(-c3ccccc3)c(-c3cc([N+](=O)[O-])ccc3C)[nH]2)ccc1O
  19 | 12 | -24 | -8 | 9243 | 0 | 9
45) Cc1cccc(N=Nc2c(C)c(C#N)c(O)[nH]c2=O)c1
  6.1 | 1 | -28 | 8 | 4407 | -5 | 7
48) O=c1[nH]cc(S(=O)(=O)N2CCOCC2)c(=O)[nH]1
  4.1 | -4 | 10 | 3 | 5411 | -5 | 6
